FGF22 binding – binders of recombinant human FGF22 by thermal shift; Q9HCT0; actives 1.5% (n = 340,000); SYPRO orange fluorescence; percent of sucrose octasulfate shift, DMSO zero; calls only at 9.99 µM; AID 651658;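 active = melting point raised past a set limit in the mean and every replicate; three in four hits are not shown here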
Target sequence (Q9HCT0 whole entry, looked up): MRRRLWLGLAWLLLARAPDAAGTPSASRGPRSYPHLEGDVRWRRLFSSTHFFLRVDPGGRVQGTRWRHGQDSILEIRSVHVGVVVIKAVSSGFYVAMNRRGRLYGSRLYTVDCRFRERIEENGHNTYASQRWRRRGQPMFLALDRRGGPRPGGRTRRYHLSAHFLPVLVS
MLL AF4-AF9 inh – MLL-AF4/AF9 protein interaction inhibition; P42568; AlphaScreen, biotin-AF4 peptide binding to FLAG-AF9; inhibition, % at 10 µM; actives 0.47% (n = 350,000); AID 651704;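 active = every replicate reaching a set inhibition limit, whatever the replicate mean, cut at about 25% in these data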;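 also: 0% = plate neutral control median and 100% = total signal loss; the record names both 10 and 1 µM as test concentration; the first replicate is given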
Target sequence (P42568 whole entry, looked up): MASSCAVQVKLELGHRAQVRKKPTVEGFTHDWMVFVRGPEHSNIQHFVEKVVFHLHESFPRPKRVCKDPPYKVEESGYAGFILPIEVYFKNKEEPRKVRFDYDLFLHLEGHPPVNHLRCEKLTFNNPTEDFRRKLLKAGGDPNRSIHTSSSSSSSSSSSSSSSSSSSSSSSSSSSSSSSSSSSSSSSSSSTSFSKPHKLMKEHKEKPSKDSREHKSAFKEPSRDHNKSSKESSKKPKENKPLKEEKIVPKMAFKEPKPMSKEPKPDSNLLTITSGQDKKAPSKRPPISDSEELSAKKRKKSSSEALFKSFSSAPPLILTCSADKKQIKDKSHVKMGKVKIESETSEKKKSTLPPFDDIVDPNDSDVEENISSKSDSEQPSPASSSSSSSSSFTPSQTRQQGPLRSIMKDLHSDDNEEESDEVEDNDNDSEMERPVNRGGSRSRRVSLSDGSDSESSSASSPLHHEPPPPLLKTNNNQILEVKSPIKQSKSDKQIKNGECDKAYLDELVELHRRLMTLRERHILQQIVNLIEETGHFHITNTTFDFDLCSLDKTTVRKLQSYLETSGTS
* marks the source's active call; other numbers are inactive results; i = inactive. A portion of the library. The share of hits here may be higher or lower than overall.

SMILES	FGF22 binding	MLL AF4-AF9 inh
C[C@@H]1CN([C@@H](C)CO)C(=O)c2cc(C#CC3(O)CCCC3)cnc2O[C@H]1CN(C)C(=O)C1CCCCC1	i	-0.8
CC(=O)N(C)C[C@@H]1Oc2ncc(-c3ccccc3F)cc2C(=O)N([C@H](C)CO)C[C@H]1C	i	-4.0
C[C@@H]1CN([C@@H](C)CO)C(=O)c2cc(NC(=O)Nc3ccc(F)cc3)ccc2O[C@@H]1CN(C)C(=O)Nc1ccc2c(c1)OCO2	i	6.8
C[C@@H]1CN([C@@H](C)CO)S(=O)(=O)c2ccc(C#Cc3ccccc3)cc2O[C@H]1CN(C)C(=O)Nc1ccccc1	i	2.2
C[C@@H]1CN([C@@H](C)CO)C(=O)c2cccc(NS(=O)(=O)c3cn(C)cn3)c2O[C@H]1CN(C)C(=O)Nc1ccc(F)cc1	i	-2.4
CC(C)CC#Cc1ccc2c(c1)O[C@@H](CN(C)Cc1cccc(F)c1)[C@@H](C)CN([C@@H](C)CO)S2(=O)=O	i	2.1
Cc1noc(C)c1NC(=O)Nc1ccc2c(c1)CC(=O)N([C@@H](C)CO)C[C@H](C)[C@H](CN(C)CC1CCCCC1)O2	i	-2.4
CC(C)NC(=O)Nc1cccc2c1O[C@H](CN(C)CC1CC1)[C@@H](C)CN([C@@H](C)CO)C2=O	i	-3.3
C[C@@H]1CN([C@H](C)CO)C(=O)c2cc(NS(=O)(=O)c3cn(C)cn3)ccc2O[C@@H](C)CCCCO[C@H]1CN(C)S(=O)(=O)c1ccccc1	i	1.0
O=C(C[C@H]1CC[C@@H](NC(=O)Nc2cc(F)ccc2F)[C@@H](CO)O1)NCc1ccncn1	i	-2.3
C[C@H]1CN([C@@H](C)CO)C(=O)c2cc(-c3cccnc3)cnc2O[C@H]1CN(C)C(=O)Cc1cccnc1	i	-0.3
CC(C)NC(=O)Nc1ccc2c(c1)C(=O)N([C@@H](C)CO)C[C@H](C)[C@@H](CN(C)Cc1ccc(C(=O)O)cc1)O2	i	-2.5
COCC(=O)N1[C@@H](CO)[C@H](c2ccc(-c3ccccc3)cc2)C12CN(C(C)=O)C2	i	-1.1
C[C@@H]1CN([C@H](C)CO)C(=O)c2cc(C#Cc3ccccc3F)cnc2O[C@@H]1CN(C)C(=O)C1CCCCC1	i	1.7
CC(=O)N1[C@@H]2Cn3c(ccc(/C=C/c4ccccc4)c3=O)[C@H]1[C@@H](C(=O)NCC1CC1)[C@@H]2CO	i	-22
O=C(Nc1cccc(F)c1)N1CCCCN2[C@H](C1)[C@H](c1ccc(C#CC3CC3)cc1)[C@@H]2CO	i	0.8
Cc1ccccc1-c1ccc2c(c1)O[C@@H](CN(C)C(=O)c1ccccn1)[C@@H](C)CN([C@H](C)CO)S2(=O)=O	i	2.0
COCCNC(=O)C[C@H]1C[C@H]2c3cc(N(C)C)ccc3O[C@H]2[C@@H](CO)O1	i	-8.0
COc1cccc(-c2ccc3n(c2=O)C[C@H]2[C@H](CO)[C@@H](C(=O)N(C)C)N(C(=O)C4CCCC4)[C@@H]32)c1	i	-1.6
C[C@H]1CN([C@@H](C)CO)C(=O)c2c(c3ccccc3n2C)-c2ccccc2CO[C@H]1CN(C)S(=O)(=O)c1cccs1	i	-2.2
CO[C@@H]1CN(C)C(=O)c2ccc(NS(=O)(=O)c3ccccc3C)cc2OC[C@H](C)N(C)C[C@@H]1C	i	-6.4
C[C@@H]1CN([C@H](C)CO)S(=O)(=O)c2ccc(C3=CCCCC3)cc2O[C@@H]1CN(C)S(C)(=O)=O	i	-0.2
C[C@@H]1CN([C@@H](C)CO)C(=O)c2cc(NS(=O)(=O)c3ccc(F)cc3)ccc2O[C@H]1CN(C)S(=O)(=O)c1cccs1	i	-1.0
CC=Cc1ccc2n(c1=O)C[C@H]1[C@H](CO)[C@@H](C(=O)NCc3ccccc3)[C@@H]2N1Cc1ccccc1OC (mixture of isomers)	i	1.4
C[C@@H]1CN([C@@H](C)CO)C(=O)CCCn2cc(nn2)CO[C@H]1CN(C)CC1CCCC1	i	-1.7
C[C@H]1CN([C@@H](C)CO)C(=O)c2cc(NC(=O)Nc3ccc4c(c3)OCO4)ccc2O[C@@H]1CN(C)Cc1ccc(-c2ccccc2)cc1	i	3.4
C[C@@H]1CN([C@@H](C)CO)C(=O)c2cc(NC(=O)Cc3cn(C)c4ccccc34)ccc2O[C@@H]1CN(C)S(C)(=O)=O	i	-2.8
C[C@H](CO)N1C[C@H](C)[C@H](CN(C)S(=O)(=O)c2ccc(Cl)cc2)Oc2c(NC(=O)Nc3cccc4ccccc34)cccc2C1=O	i	0.6
CCCNC(=O)[C@H]1[C@H](CO)[C@H]2Cn3c(ccc(/C=C/c4ccccc4)c3=O)[C@H]2N1CC	i	-3.3
O=C(C[C@H]1CC[C@@H](NC(=O)Nc2ccc(F)cc2)[C@@H](CO)O1)NCCN1CCCC1	i	-6.6
C[C@@H]1CN([C@@H](C)CO)C(=O)c2cccc(NS(=O)(=O)c3cn(C)cn3)c2O[C@@H]1CN(C)Cc1ccccc1	i	-2.0
CC=Cc1ccc2n(c1=O)C[C@@H]1[C@@H](CO)[C@H](C(=O)NCCCN3CCOCC3)N(C)[C@H]21 (mixture of isomers)	i	-20
COCC#Cc1cnc2c(c1)C(=O)N([C@H](C)CO)C[C@@H](C)[C@@H](CN(C)C(=O)Nc1cccc(F)c1)O2	i	-2.4
CC(C)NC(=O)Nc1cccc2c1O[C@@H](CN(C)C(=O)Nc1ccc(F)cc1)[C@@H](C)CN([C@H](C)CO)C2=O	i	-1.4
CN(C)C(=O)[C@@H]1[C@@H](CO)[C@@H]2Cn3c(ccc(-c4ccncc4)c3=O)[C@@H]2N1Cc1ccccc1	i	-1.8
COCc1cn(CC[C@@H]2CC[C@H](NC(=O)c3ccccc3)[C@@H](CO)O2)nn1	i	-0.5
COc1ccc(NC(=O)N(C)C[C@@H]2Oc3ccc(NS(C)(=O)=O)cc3C(=O)N([C@H](C)CO)C[C@@H]2C)cc1	i	-4.7
CCCC#Cc1ccc([C@H]2[C@@H](CO)N(C(=O)C3CCOCC3)[C@H]2C#N)cc1	i	-3.7
CCCNC(=O)N1C[C@H](C)[C@H](OC)CN(C)C(=O)c2ccc(NS(C)(=O)=O)cc2OC[C@H]1C	i	-4.5
C[C@H](CO)N1C[C@H](C)[C@@H](CN(C)C(=O)CC2CC2)Oc2cc(C3=CCCCC3)ccc2S1(=O)=O	i	1.8
CO[C@@H]1CN(C)C(=O)c2ccc(NC(=O)C3CCCC3)cc2OC[C@@H](C)N(CC2CC2)C[C@@H]1C	i	0.7
C[C@@H](O)C#Cc1ccc([C@@H]2[C@@H](CO)N3CCCCN(C(=O)c4ccc(F)cc4)C[C@@H]23)cc1	i	-7.2
CCCNC(=O)Nc1ccc2c(c1)OC[C@H](C)N(Cc1ccccc1)C[C@@H](C)[C@@H](OC)CN(C)C2=O	i	1.5
Cc1noc(C)c1S(=O)(=O)Nc1cccc2c1O[C@@H](CN(C)S(C)(=O)=O)[C@@H](C)CN([C@H](C)CO)C2=O	i	-1.2
C[C@H](CO)N1C[C@H](C)[C@H](CN(C)Cc2ccc(Cl)c(Cl)c2)Oc2ccc(NC(=O)Nc3ccc4c(c3)OCO4)cc2CC1=O	i	2.4
COc1ccc(S(=O)(=O)Nc2ccc3c(c2)CC(=O)N([C@H](C)CO)C[C@@H](C)[C@H](CN(C)S(=O)(=O)c2cccs2)O3)cc1	i	-2.7
C[C@H](CO)N1C[C@H](C)[C@@H](CN(C)C(=O)Nc2ccccc2C(F)(F)F)OCc2cnnn2CCCC1=O	i	-1.9
CN(C)Cc1cn(CC[C@H]2CC[C@H](NC(=O)Nc3ccccc3F)[C@H](CO)O2)nn1	i	-1.5
CC(C)NC(=O)N1C[C@@H]2[C@H](c3ccccc31)[C@@H](CO)N2Cc1ccccc1	i	1.0
CO[C@@H]1CN(C)C(=O)c2cc(NC(=O)C3CCCCC3)ccc2OC[C@H](C)N(Cc2nccs2)C[C@H]1C	i	-2.6
C[C@@H]1CN([C@H](C)CO)C(=O)Cc2cc(NC(=O)Nc3ccc(C(F)(F)F)cc3)ccc2O[C@H]1CN(C)S(=O)(=O)c1ccccc1	i	-3.7
COc1ccc(NC(=O)Nc2ccc3c(c2)C(=O)N([C@@H](C)CO)C[C@@H](C)[C@H](CN(C)CC2CC2)OCCCC[C@@H](C)O3)cc1	i	22
COCC(=O)Nc1ccc2c(c1)C(=O)N(C)C[C@@H](OC)[C@@H](C)CN(Cc1ccccn1)[C@@H](C)CO2	i	-14
C[C@H](CO)N1C[C@H](C)[C@H](CN(C)Cc2ccc(C(F)(F)F)cc2)Oc2ccc(NC(=O)c3ccncc3)cc2CC1=O	i	-1.0
Cc1noc(C)c1S(=O)(=O)N(C)C[C@H]1Oc2ccc(NC(=O)C3CCCCC3)cc2CC(=O)N([C@@H](C)CO)C[C@@H]1C	i	-0.3
O=C(C[C@H]1CC[C@H]2[C@@H](COC[C@H](O)CN2Cc2nccs2)O1)NCc1ccc(F)cc1	i	-2.8
COCC(=O)Nc1ccc2c(c1)C(=O)N(C)[C@@H]1CC[C@@H](CC(=O)NCc3ccccc3)O[C@H]1CO2	i	-0.1
O=C(c1ccccc1)N1CC2(C1)[C@@H](c1ccccc1)[C@H](CO)N2CC1CC1	i	-0.9
Cc1noc(C)c1NC(=O)N[C@H]1C=C[C@H](CC(=O)N2CCN(C)CC2)O[C@H]1CO	i	-2.1
CCC(=O)N(C)C[C@H]1Oc2cc(-c3ccc(F)cc3)ccc2S(=O)(=O)N([C@@H](C)CO)C[C@@H]1C	i	1.9

Remaining list, next part:
SMILES	FGF22 binding	MLL AF4-AF9 inh
C[C@@H]1CCCCO[C@@H](CN(C)S(=O)(=O)c2ccccc2)[C@@H](C)CN([C@@H](C)CO)C(=O)c2cc(NC(=O)Nc3ccc4c(c3)OCO4)ccc2O1	i	2.8
Cc1noc(C)c1NC(=O)Nc1cccc2c1O[C@@H](CN(C)S(=O)(=O)c1cn(C)cn1)[C@@H](C)CN([C@@H](C)CO)C2=O	i	-2.9
COc1ccc2c3c([nH]c2c1)[C@H](CO)N(C(=O)C1CCCC1)CC31CCN(C(=O)c2ccncc2)CC1	i	-2.6
CC(C)NC(=O)N[C@@H]1CC[C@@H](CCN)O[C@H]1CO	i	-2.7
C[C@@H]1CN([C@H](C)CO)C(=O)c2cc(N(C)C)ccc2O[C@@H](C)CCCCO[C@@H]1CN(C)C(=O)C1CCCCC1	i	2.8
COC(=O)[C@]12C[C@H](CC(=O)NCc3cccc(C(F)(F)F)c3)C(=O)N(CCC3=CCCCC3)C1=C[C@H](COCc1ccccc1)O[C@@H]2C	i	1.1
COc1cccc(C#Cc2cnc3c(c2)C(=O)N([C@@H](C)CO)C[C@H](C)[C@H](CN(C)C(=O)C2CCOCC2)O3)c1	i	-0.9
C[C@H](CO)N1C[C@H](C)[C@H](CN(C)Cc2ccc(Cl)c(Cl)c2)OCCCC[C@H](C)Oc2ccc(NC(=O)NC3CCCCC3)cc2C1=O	i	-0.6
CC(C)NC(=O)Nc1ccc2c(c1)CC(=O)N([C@H](C)CO)C[C@H](C)[C@@H](CN(C)C(=O)Nc1ccc(F)cc1)O2	i	0.3
C[C@@H]1CN([C@@H](C)CO)S(=O)(=O)c2ccc(C#CC(C)(C)O)cc2O[C@H]1CN(C)Cc1ccncc1	i	-1.3
CC(C)NC(=O)N[C@H]1CC[C@@H](CC(=O)NCc2ccc(Oc3ccccc3)cc2)O[C@@H]1CO	i	-1.7
Cc1cccc(S(=O)(=O)N2CC[C@@H]3[C@@H](CO)N(C)c4ccc(-c5ccc(C#N)cc5)cc4[C@@H]32)c1	i	-9.9
COc1ccc(NC(=O)N[C@@H]2CC[C@H](CC(=O)NC3CCC3)O[C@@H]2CO)cc1	i	0.6
COc1cccc(NC(=O)N2CC(=O)N3[C@@H](CO)[C@H](c4ccc(C#CCC5CCCC5)cc4)[C@@H]3C2)c1	i	2.8
C=CCNC(=O)[C@H]1[C@@H]2C(=O)O[C@@H](c3ccccc3)[C@@H](c3ccccc3)N2[C@@H](c2ccc(O)cc2)[C@]12C(=O)N(C(=O)OCCOC)c1ccc(C#CC3(O)CCCCCC3)cc12	i	-0.2
O=C(NC1CCCC1)[C@H]1[C@H](CO)[C@H]2Cn3c(ccc(-c4cccnc4)c3=O)[C@H]2N1CC1CC1	i	0.3
CN1C(=O)c2cc(NC(=O)C3CCCC3)ccc2OC[C@H]2O[C@H](CC(=O)NCC(F)(F)F)CC[C@H]21	i	0.1

Screens: PubChem, Broad Institute
